# MITF inhib – MITF inhibition. TRPM1 promoter luciferase, luminescence, 24 h. inhibition, % (concentration not given with the values). 0.28% of 37,000 active. AID 2240;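 active means most replicates at 85% or more, or half of them and the mean; inconclusive means half reach 85% but not the mean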;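 further: human melanocyte line stably carrying TRPM1 promoter luciferase reporter; 0% = vehicle wells and 100% = a positive control; the first replicate is given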
# YB-1 expr inh – YB-1 expression inhibition. U2OS, qRT-PCR YB-1 vs CDIP delta delta Cp, 16 h; stronger effect = higher value; zero = DMSO, each unit about twofold. delta delta Cp (YB-1 minus CDIP) (concentration not given with the values). 0.37% of 30,000 active. AID 434959;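 active means delta delta Cp rounded down to an integer at or above 3, about 3 SD of DMSO wells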;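 further: higher means less YB-1 transcript or more CDIP transcript relative to DMSO; stock transfer was 100 nL into about 100 µL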
# Shh pathway inh – blocks Sonic Hedgehog signaling | Shh-LIGHT2 Gli-luciferase reporter, 30 h | inhibition, % (concentration not given with the values) | 2.1% of 22,000 active | AID 2313;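 active means replicate mean of 65% or more; inconclusive means mean lower but half the replicates past it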;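 further: pathway switched on by Shh-conditioned medium diluted 1 in 25 in low serum; 100 nL library stock added to about 40 µL; 0% = median of neutral wells and 100% = positive control level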
# PD-1 reverse act – reversal of PD-1 mediated T-cell inhibition | primary human CD4 T cells, PD-L1 beads, CellTiter-Glo 96 h | activation, % (concentration not given with the values) | 29,000 tested, under 10 active;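 active means replicate mean of 50% or more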;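 further: 0% = median vehicle wells and 100% = positive control; 100 nL library stock added to about 50 µL; numbers are from one replicate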
# Starred values were filed as active, the others as inactive; ? = inconclusive; / = no result given. Some of the compounds tested (hit frequency here may not be typical).
SMILES	MITF inhib	YB-1 expr inh	Shh pathway inh	PD-1 reverse act
C[C@@H]1CN([C@H](C)CO)C(=O)Cc2cc(NC(=O)Nc3ccc(F)cc3)ccc2O[C@H]1CN(C)S(=O)(=O)c1ccc(F)cc1	0	-0.21	28	0.0
O=C(CSc1ncccc1C(=O)O)Nc1ccc(Oc2ccccc2)cc1	-3	/	/	2.3
C[C@@H]1CN([C@H](C)CO)C(=O)c2cccc(NC(=O)Nc3ccccc3)c2O[C@H]1CN(C)C(=O)Nc1ccc2c(c1)OCO2	-5	0.24	-11	-1.3
C[C@@H]1CN([C@H](C)CO)C(=O)c2cc(NC(=O)c3ccncc3)ccc2O[C@@H]1CN(C)CC1CCCCC1	1	0.17	/	5.0
C[C@H]1CN([C@@H](C)CO)C(=O)c2cc(N(C)C)ccc2O[C@@H]1CN(C)Cc1ccc(-c2ccccc2)cc1	1	0.2	-14	-1.0
C[C@H]1CN([C@@H](C)CO)C(=O)c2cccc(N(C)C)c2O[C@@H]1CN(C)Cc1ccccc1	6	0.26	-5	/
C[C@H]1CN([C@@H](C)CO)C(=O)Cc2cc(NC(=O)Nc3ccccc3)ccc2O[C@@H]1CN(C)C	5	-0.64	-17	0.9
COc1ccc(C(=O)Nc2ccc(Cl)cc2)cc1S(=O)(=O)Nc1ccc(Cl)cc1	27	0.027	-23	-0.6
C[C@H](CO)N1C[C@H](C)[C@H](CN(C)C(=O)Nc2ccc(F)cc2)Oc2c(NS(=O)(=O)c3ccccc3)cccc2C1=O	6	-0.23	-41	-4.6
O=C(NCc1cccnc1)C1COc2ccccc2O1 (stereo not given)	-18	/	/	2.7
COc1ccc(NC(=O)COc2ccccc2CO)cc1	-21	/	/	1.2
C[C@@H]1CN([C@@H](C)CO)C(=O)Cc2cc(NC(=O)Cn3cnnn3)ccc2O[C@@H]1CN(C)CC1CC1	-4	-0.12	/	0.4
Cc1noc(C)c1S(=O)(=O)N(C)C[C@@H]1Oc2c(NC(=O)C3CCCCC3)cccc2C(=O)N([C@H](C)CO)C[C@@H]1C	-10	0.071	5	/
C[C@@H]1CN([C@H](C)CO)C(=O)c2cc(NS(=O)(=O)c3cccs3)ccc2O[C@H]1CN(C)C(=O)Nc1ccc(C(F)(F)F)cc1	-8	0.37	-49	-1.7
Cc1ccc(S(=O)(=O)Nc2ccc3c(c2)CC(=O)N([C@H](C)CO)C[C@H](C)[C@H](CN(C)S(=O)(=O)c2ccc(Cl)cc2)O3)cc1	0	-0.17	24	/
C[C@H](CO)N1C[C@H](C)[C@H](CN(C)CC2CCCCC2)Oc2ccc(NC(=O)Nc3ccccc3)cc2CC1=O	-14	0.086	3	/
C[C@@H]1CN([C@@H](C)CO)C(=O)c2cccc(NC(=O)Nc3ccc4c(c3)OCO4)c2O[C@@H]1CN(C)S(=O)(=O)c1cccs1	-34	-0.13	21	-0.1
C[C@H](CO)N1C[C@H](C)[C@@H](CN(C)S(=O)(=O)c2ccc(F)cc2)Oc2ccc(NS(=O)(=O)c3cccs3)cc2C1=O	-8	0.1	-17	/
C[C@H]1CN([C@@H](C)CO)C(=O)Cc2cc(NS(=O)(=O)c3ccccc3)ccc2O[C@@H]1CN(C)S(C)(=O)=O	2	-0.13	/	0.1
COc1ccc(CN(C)C[C@@H]2Oc3ccc(NS(=O)(=O)c4ccc(Cl)cc4)cc3C(=O)N([C@H](C)CO)C[C@H]2C)cc1	6	-0.028	-7	-0.1
O=C(CCN1CCCCC1)Nc1ccc(Cl)cc1	9	0.3	-15	-0.2
Cc1ccc(S(=O)(=O)Nc2cccc3c2O[C@H](CN(C)C(=O)NC(C)C)[C@@H](C)CN([C@@H](C)CO)C3=O)cc1	-1	0.33	-20	1.0
O=C(c1ccccc1C(=O)N1CCCCC1)N1CCCCC1	2	-0.2	/	-0.1
CNC[C@H]1Oc2ccc(NS(C)(=O)=O)cc2CC(=O)N([C@H](C)CO)C[C@H]1C	-11	-0.29	0	3.4
CC1=CC(c2ccccc2)=C(C#N)C(=S)C1CC(=O)c1cccs1 (stereo not given)	-17	0.35	10	0.5
Cc1ccccc1NC(=O)CC1NCCNC1=O (stereo not given)	-7	/	/	1.5
O=C1OC(CN2CCOCC2)CN1/N=C/c1ccc([N+](=O)[O-])o1 (stereo not given)	3	-0.85	-29	/
Cc1ccc(N(CC(=O)Nc2cc(Cl)ccc2C)S(C)(=O)=O)cc1C	-11	/	/	-1.0
Cc1noc(C)c1NC(=O)Nc1cccc2c1O[C@H](CN(C)CC1CCCCC1)[C@H](C)CN([C@@H](C)CO)C2=O	-7	0.042	-5	0.4
C[C@@H]1CN([C@@H](C)CO)C(=O)c2cccc(NC(=O)C3CCOCC3)c2O[C@@H]1CN(C)S(=O)(=O)c1cn(C)cn1	-2	0.37	?	2.7
COC(=O)c1ccc(NC(=S)NC(=O)N2CCOCC2)cc1	-5	-0.12	9	2.1
C[C@@H]1CCCCO[C@@H](CN(C)C(=O)Nc2cccc3ccccc23)[C@@H](C)CN([C@H](C)CO)C(=O)c2cc(NC(=O)CCC(F)(F)F)ccc2O1	10	-0.62	/	-0.9
COc1ccc(S(=O)(=O)N(C)C[C@@H]2Oc3ccc(NC(=O)CCC(F)(F)F)cc3C(=O)N([C@@H](C)CO)C[C@@H]2C)cc1	-14	-0.17	/	0.2
C[C@@H]1CN([C@@H](C)CO)C(=O)Cc2cc(NC(=O)C3CC3)ccc2O[C@@H]1CN(C)C(=O)Nc1cccc2ccccc12	10	0.17	/	0.7
O=C(CSc1nnnn1-c1ccccc1)Nc1ccc(Oc2ccccc2)cc1	-4	/	/	1.4
Cn1nnnc1SCC(=O)Nc1ccc(C#N)cc1	-14	/	/	1.2
CC(C)NC(=O)N(C)C[C@H]1Oc2ccc(NS(=O)(=O)c3ccccc3)cc2CC(=O)N([C@@H](C)CO)C[C@@H]1C	-8	0.64	9	2.7
c1ccc(-c2nc(SCC3COc4ccccc4O3)oc2-c2ccccc2)cc1 (stereo not given)	9	-0.0042	14	-0.5
Cc1noc(C)c1S(=O)(=O)Nc1cccc2c1O[C@H](CN(C)S(=O)(=O)c1ccccc1)[C@H](C)CN([C@H](C)CO)C2=O	-12	-0.18	26	-0.4
Cc1noc(C)c1NC(=O)Nc1ccc2c(c1)C(=O)N([C@@H](C)CO)C[C@H](C)[C@H](CN(C)Cc1ccc(C(=O)Nc3ccccc3N)cc1)O2	-18	-0.25	/	0.8

# Among those listed so far, 2 contain a cyano group:
SMILES	MITF inhib	YB-1 expr inh	Shh pathway inh	PD-1 reverse act
CC1=CC(c2ccccc2)=C(C#N)C(=S)C1CC(=O)c1cccs1 (stereo not given)	-17	0.35	10	0.5
Cn1nnnc1SCC(=O)Nc1ccc(C#N)cc1	-14	/	/	1.2

# Other entries follow.
SMILES	MITF inhib	YB-1 expr inh	Shh pathway inh	PD-1 reverse act
COc1ccc(NC(=O)CSc2nc3ccccc3c(=O)n2-c2ccc(C)cc2)c(OC)c1	7	/	/	-0.7
C[C@H](CO)N1C[C@H](C)[C@H](CN(C)Cc2ccc(Oc3ccccc3)cc2)Oc2c(NC(=O)c3ccncc3)cccc2C1=O	-17	-0.14	20	-2.2
COc1ccc(NC(=O)N(C)C[C@H]2Oc3c(NS(=O)(=O)c4c(C)noc4C)cccc3C(=O)N([C@H](C)CO)C[C@H]2C)cc1	-4	-0.31	23	1.0
C[C@@H]1CN([C@@H](C)CO)C(=O)c2cc(NC(=O)Cn3cnnn3)ccc2O[C@H]1CN(C)C(=O)Nc1ccc2c(c1)OCO2	11	0.29	18	-0.7
O=c1c2cc(-c3ccccc3)sc2ncn1/N=C/c1cccs1	-93	-6.3	-48	0.5
CCn1nccc1C(=O)Nc1nc2ccccc2n1CCN1CCCCC1	-19	/	/	-2.8
COc1ccc(NC(=O)N(C)C[C@@H]2Oc3c(NC(=O)Nc4ccc(F)cc4)cccc3C(=O)N([C@@H](C)CO)C[C@H]2C)cc1	12	0.72	-13	/
O=C(COc1ccc(Cl)cc1CO)Nc1ccc(F)cc1	-63	/	/	0.0
COc1ccc(CN(C)C[C@H]2OCCCC[C@@H](C)Oc3ccc(NC(=O)c4ccccc4)cc3C(=O)N([C@H](C)CO)C[C@@H]2C)cc1	-4	0.17	-25	/
Cc1noc(C)c1NC(=O)Nc1cccc2c1O[C@H](CN(C)Cc1ccc(C(=O)Nc3ccccc3N)cc1)[C@@H](C)CN([C@H](C)CO)C2=O	4	-0.54	/	-0.3
COc1ccc2nc(Sc3c([N+](=O)[O-])nc(C)n3Cc3ccccc3)[nH]c2c1	53	/	/	-14
C[C@@H]1CN([C@H](C)CO)C(=O)c2cc(NS(=O)(=O)c3cn(C)cn3)ccc2O[C@@H]1CN(C)C(=O)Nc1ccccc1	-7	-0.43	-20	1.3
COC(=O)C1=CO[C@@H](OC2OC(O)C(O)C(O)C2CO)[C@H]2[C@@H]1C=CC21C=C([C@H](C)OC(=O)/C=C/c2ccc(OC3OC(CO)C(O)C(O)C3O)cc2)C(=O)O1 (stereo not given in full)	20	-0.052	-21	1.7
COc1ccc(NC(=O)Nc2ccc3c(c2)C(=O)N([C@H](C)CO)C[C@@H](C)[C@H](CN(C)C(=O)Nc2cccc4ccccc24)O3)cc1	1	-0.37	-35	-0.5
C[C@@H]1CN([C@@H](C)CO)C(=O)Cc2cc(NS(=O)(=O)c3ccc(Cl)cc3)ccc2O[C@@H]1CN(C)Cc1ccc(C(F)(F)F)cc1	5	0.19	4	-2.0
CC(C)OC(=O)C1C2C=CC3(CN(Cc4ccco4)C(=O)C13)O2 (stereo not given)	-12	/	/	2.9
Cc1noc(C)c1NC(=O)N(C)C[C@@H]1Oc2ccc(NC(=O)Cc3ccccc3)cc2C(=O)N([C@@H](C)CO)C[C@H]1C	-6	-0.025	-26	2.0
CNC[C@H]1Oc2ccc(NC(=O)Cc3cn(C)c4ccccc34)cc2CC(=O)N([C@@H](C)CO)C[C@H]1C	2	-0.24	-22	/
Cc1nc(SC(C)C(=O)Nc2ccc(Cl)cc2)n[nH]1 (stereo not given)	19	/	/	0.4
O=C(OCCO)c1cccc2c1-c1ccccc1C2=O	-10	-0.27	-38	0.0
CC(=O)c1cccc(NC(=O)CSc2nc(C)cc(=O)[nH]2)c1	-32	/	/	0.7
COc1ccc(OCc2ncc(-c3ccc4c(c3)OCCCO4)s2)cc1	-15	-0.23	3	0.3
COc1c(S(=O)(=O)n2c(C)nc3ccccc32)ccc(Cl)c1Cl	27	/	/	-0.2
C[C@@H]1CN([C@H](C)CO)C(=O)c2cccc(NC(=O)Nc3ccc(C(F)(F)F)cc3)c2O[C@H]1CN(C)Cc1ccc(Cl)c(Cl)c1	42	0.18	-7	-6.0
COc1c(C(CC(C)C)OC(C)=O)ccc2c1C(=O)OCc1cc(C)cc(O)c1O2 (stereo not given)	25	-0.62	-26	-1.7
CCOC(=O)c1c(NC(=O)c2nc3ncccn3n2)sc2c1CCCC2	-12	/	/	1.1
Cc1ccc(S(=O)(=O)Nc2ccc3c(c2)C(=O)N([C@@H](C)CO)C[C@@H](C)[C@H](CN(C)Cc2ccc(Oc4ccccc4)cc2)O3)cc1	13	0.23	30	/
Cc1noc(C)c1NC(=O)N(C)C[C@H]1Oc2c(cccc2N(C)C)C(=O)N([C@@H](C)CO)C[C@H]1C	-2	-0.095	-7	3.5
C[C@@H]1CN([C@@H](C)CO)C(=O)c2cc(NC(=O)Nc3ccc(F)cc3)ccc2O[C@H]1CN(C)S(=O)(=O)c1ccccc1	-51	-0.38	-5	-0.7
CCc1cccc(NC(=O)CSc2c(C)n[nH]c2C)c1	-7	/	/	0.2
O=C(/C=C/c1ccccc1)O[C@@H]1O[C@H](CO)[C@@H](O)[C@H](O)[C@H]1O	-6	-0.11	-19	1.0

# One compound at a time, from the list above. Values in the order: MITF inhib | YB-1 expr inh | Shh pathway inh | PD-1 reverse act
# Cc1noc(C)c1NC(=O)N(C)C[C@H]1Oc2c(cccc2N(C)C)C(=O)N([C@@H](C)CO)C[C@H]1C in the list: -2 | -0.095 | -7 | 3.5
# COc1ccc(OCc2ncc(-c3ccc4c(c3)OCCCO4)s2)cc1 in the list: -15 | -0.23 | 3 | 0.3
# C[C@@H]1CN([C@@H](C)CO)C(=O)c2cc(NC(=O)Nc3ccc(F)cc3)ccc2O[C@H]1CN(C)S(=O)(=O)c1ccccc1 in the list: -51 | -0.38 | -5 | -0.7
# CCc1cccc(NC(=O)CSc2c(C)n[nH]c2C)c1 in the list: -7 | / | / | 0.2
# CC(=O)c1cccc(NC(=O)CSc2nc(C)cc(=O)[nH]2)c1 in the list: -32 | / | / | 0.7
